# Source: PubChem
# Sa growth 42C: S. aureus growth inhibition; S. aureus RN4220 growth, OD600, 20 h, 42 °C; stronger effect = lower value; relative growth, % (concentration not given with the values); hit rate 0.53% among 170,000; AID 720641;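 active = growth at 42 °C up to 50% and 20 or more points under that at 30 °C, or under 10% at both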;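 note: 300 nL library stock went into each well; scaled to the means of positive and negative controls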
# HCMV UL50-53 inh: inhibitors of HCMV UL50-UL53 nuclear egress complex interaction. HTRF UL50-UL53 interaction, normalized percent inhibition. inhibition, % (concentration not given with the values). hit rate 0.15% among 190,000. AID 1918969;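 active = both replicates at 50% or more, plus weaker picks with an unusually low signal ratio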;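 note: stock transfer was 100 nL into about 20 µL; 0% = negative control wells and 100% = wells with untagged competitor protein; inactives centre near -12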
# GIV-Gai inh: GIV-Galpha-i interaction inhibition; P08753; percent of control (FP), % (concentration not given with the values); AID 1224905; Galpha-i3/FITC-GIV peptide fluorescence polarization, 90 min; stronger effect = lower value; scaled: aluminum fluoride 0%, vehicle 100%; hit rate 0.42% among 210,000;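 active = replicate mean at 85% of control or lower, very high polarization wells dropped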;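 note: wells of about 15 µL received 100 nL stock; the first replicate is given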
# Target sequence (P08753 whole entry, looked up): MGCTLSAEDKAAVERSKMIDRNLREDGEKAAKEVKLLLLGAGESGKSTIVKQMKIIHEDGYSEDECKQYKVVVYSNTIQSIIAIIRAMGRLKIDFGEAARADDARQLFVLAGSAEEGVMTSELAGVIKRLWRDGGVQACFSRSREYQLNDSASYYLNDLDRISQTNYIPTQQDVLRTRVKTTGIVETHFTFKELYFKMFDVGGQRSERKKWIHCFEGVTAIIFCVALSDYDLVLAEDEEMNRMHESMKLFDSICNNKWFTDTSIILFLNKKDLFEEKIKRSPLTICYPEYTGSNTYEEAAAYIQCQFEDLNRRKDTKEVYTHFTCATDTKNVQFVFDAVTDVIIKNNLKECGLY
# Sa growth 42C second temp: also measured in Sa growth 42C; calls as there; relative growth, %; measured here: growth at 30 °C;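 optical density after 20 h as mean of two plates; 100% = untreated growth and lower means inhibition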
# Active calls of the source: *; x = no result given; & = joins results of further samples.
SMILES,Sa growth 42C,Sa growth 42C second temp,HCMV UL50-53 inh,GIV-Gai inh
CN1C(C(=O)N2CCC3(CC2)OCCO3)=CC(c2ccc(F)cc2)=NS1(=O)=O,86.1,81.0,-55.3,100.0
CCN1C[C@@]2(COC)C3[C@@H](OC)[C@H]4[C@@H]1[C@]3(C(OC)C[C@H]2O)C1C[C@@]2(O)[C@H](OC(=O)c3ccccc3)C1[C@]4(OC(C)=O)[C@@H](O)[C@@H]2OC (stereo partly specified),81.1,82.3,-42.4,x
N#Cc1cccc(NC(=O)CSc2nc3c(cc2C#N)N2CCC3CC2)c1,102.2,97.3,-38.2,102.6
CC1(C)CSC(Nc2ccccc2F)=N1,107.5,86.7,-8.5,102.6
O=c1oc2ccccc2n1CN1CC=C(c2ccccc2)CC1,108.2,102.2,-4.5,x
Cc1ccc(NP(C)(=O)c2nc3c(s2)CCCC3)cc1 (stereo unspecified),32.2,2.2,2.4,x
NC1CCc2cc(O)c(O)cc2C1 (stereo unspecified),x,x,-12.8&-21.4,104.6
C[N+](C)(C)CCOC(=O)CBr,x,x,-34.0,98.7
COc1ccc(N=Cc2c(O)n(C)c(=O)[nH]c2=O)cc1,99.0,99.7,-3.2,124.6
CC(C)N(Cc1ccccc1)C(=O)C(C)(C)C,84.3,96.4,-8.6,99.8
CN(C)c1ccc(C2SCC(=O)Nc3c2c(-c2ccccc2)nn3-c2ccccc2)cc1 (stereo unspecified),x,x,-13.1,105.5
CC12CN3CC(C)(CN(C1)C3c1ccccn1)C2O (stereo unspecified),x,x,-24.8,99.5
CC(=O)Nc1cc([As](=O)(O)O)ccc1O,95.1,86.1,-37.4,x
CN1C(=O)/C(=C/c2ccc(I)o2)C(=O)NC1=S,51.6,103.5,-42.5,46.4*
N#CCCn1cc(C(=O)N(c2ccccc2)c2ccccc2)c(-c2ccccc2)n1,99.4,102.3,-4.4,106.7
CC(=O)NC(C(=O)NCc1ccc(F)cc1)C(C)C (stereo unspecified),98.2,93.1,7.0,x
COc1ccc2sc(N(CCN(C)C)C(=O)Cc3ccccc3)nc2c1,82.3,89.6,x,100.9
CC(C)(C)C1(O)CC2OC(=O)CC23C(=O)OC2OC(=O)C(O)C231 (stereo unspecified),93.0,99.9,15.6,x
OC1(c2ccccc2)CN2CCC1CC2 (stereo unspecified),99.2,97.3,x,101.1
O=C(CN1CC=C(c2ccccc2)CC1)NCc1cccs1,95.2,82.3,-17.7,x
CCOC(=O)C1CCN(/C=C2/C(=O)NC(=O)N(c3cccc(C)c3C)C2=O)CC1,105.7,98.4,-13.0,126.4
CC(C)C(C(=O)NC1CN2CCC1CC2)c1ccc(Cl)cc1 (stereo unspecified),103.3,98.4,-1.9,x
CN1C(=O)C(=Cc2ccc(Br)cc2)C(=O)N(C)C1=O,86.8,81.8,-10.9,99.9
C=CCC1(C(C)CCC)C(=O)N=C(S)NC1=O (stereo unspecified),90.7,82.3,-56.0,x
CCCCn1c(C)c(C(=O)OCC)c2cc(OC(=O)COc3ccccc3)c3ccccc3c21,x,x,1.1,101.8
# (list continues)
SMILES,Sa growth 42C,Sa growth 42C second temp,HCMV UL50-53 inh,GIV-Gai inh
CC1(C)CC(=O)C(C2(O)C(=O)N(CN3CCOCC3)c3ccccc32)CO1 (stereo unspecified),85.8,70.8,x,102.8
O=C1/C(=C/c2ccccc2C(F)(F)F)N2CCC1CC2,x,x,3.7,100.9
COc1ccc(O)c(C(C)(C)C)c1,82.6,82.7,-28.6,108.8
CC12CN3CC(C)(CN(C1)C3(C)C)C2O (stereo unspecified),103.5,105.1,-7.5,99.6
Cc1ccc(C)c(CN2CCN(Cc3ccccc3)CC2)c1,106.1,114.9,-1.8,98.6
N#CC1=C(N)Oc2c(c(=O)oc3ccccc23)C1c1ccc(F)cc1Br (stereo unspecified),x,x,-19.3,95.4
CCCCCCc1cc(O)c2c(c1)OC(C)(C)C1=C2CCN(C)C1,102.9,82.6,-30.1,104.4
O=C(c1ccccc1)c1cc(Br)ccc1NC(=O)c1cc2ccccc2oc1=O,x,x,-12.0,103.4
COc1ccc(CC2C(=O)NC(=O)N(c3ccccc3)C2=O)c(OC)c1 (stereo unspecified),114.8,96.2,-4.9,105.7
CCOC(=O)C1(c2ccccc2)CCN(C(=O)c2c(C)oc3ccc(OC)cc23)CC1,103.5,85.6,2.1,102.5&98.4
O=C(O)CCc1nc2ccccc2c(=O)n1-c1ccc(F)cc1,89.0,93.2,-22.4,x
CCOCC(=O)NC1CCSC1=O (stereo unspecified),118.5,100.5,x,93.9
c1ccc(CN2CCN(Cc3ccc4c(c3)OCO4)CC2)cc1,104.7,105.8,0.3,97.3
O=P(O)(Nc1ccccc1)Nc1ccccc1,80.5,92.2,-8.1,x
COc1ccc(C2c3cccn3-c3ccccc3CN2C(=O)Nc2cc(C)ccc2C)cc1 (stereo unspecified),x,x,-10.5,101.6
Cc1ccc2[nH]cc(C(O)CN3CCC(C)CC3)c2c1 (stereo unspecified),x,x,-8.5,109.7
Clc1ccc(CN2CCN(Cc3ccc4c(c3)OCO4)CC2)cc1,103.3,90.2,-2.8,103.5
O=c1cc(C2CCNCC2)[nH][nH]1,96.3,99.7,-7.4,107.8
CN1C[C@H](C(=O)N[C@]2(C)C[C@@]3(O)C4CCCN4C(=O)[C@H](Cc4ccccc4)N3C2=O)C=C2c3cccc4[nH]cc(c34)C[C@H]21 (stereo partly specified),105.6,92.6,-14.3,x
C=CC(=O)N(CC)CC,115.0,66.7,-4.9,97.5
CCOC(=O)/C(=C(/C)N1CCCC1)P(=S)(N1CCOCC1)N1CCOCC1,99.7,88.1,-22.4,x
CNCC(O)c1cccc(OC(=O)c2ccccc2C)c1 (stereo unspecified),116.5,89.2,-10.6,104.4
COc1ccc(C(=O)c2c(C)n(CCN3CCOCC3)c3ccccc23)cc1,96.7,95.5,-42.3,101.1
COC(=O)C1=CN2C(C=C1)C(C(=O)OC)(C(=O)OC)[C@@H](c1cccnc1)[C@@H]2C#N (stereo partly specified),101.6,73.3,-82.5,x
N#CCCn1cc(C(=O)Nc2ccccc2)c(-c2ccc3c(c2)OCCO3)n1,104.5,73.2,x,100.8

# Single records, as listed above:
# COc1ccc(O)c(C(C)(C)C)c1 in the list: Sa growth 42C: 82.6; Sa growth 42C second temp: 82.7; HCMV UL50-53 inh: -28.6; GIV-Gai inh: 108.8
# O=c1oc2ccccc2n1CN1CC=C(c2ccccc2)CC1 in the list: Sa growth 42C: 108.2; Sa growth 42C second temp: 102.2; HCMV UL50-53 inh: -4.5; GIV-Gai inh: x

# The results go on:
SMILES,Sa growth 42C,Sa growth 42C second temp,HCMV UL50-53 inh,GIV-Gai inh
CN1C2CCC1CC(OC(=O)c1cc(Cl)cc(Cl)c1)C2 (stereo unspecified),x,x,1.0&-17.9,102.3
c1cncc(CNCCN2CCOCC2)c1,91.0,78.4,-9.5,101.9
CC(C)(C)c1cc(-n2nc3ccccc3n2)c(O)c(C(C)(C)C)c1,61.8,78.5,x,104.5
Cc1cccc(CN2C(=O)CN=C(c3ccccc3)c3ccccc32)c1,98.5,98.1,x,97.9
CCCCC1C(=O)NC(=S)N(c2ccccc2)C1=O (stereo unspecified),x,x,-6.2,104.6
O=C(O)CCCc1ccc(N(CCCl)CCCl)cc1,98.5&102.6,93.9&100.4,-13.2&14.6&47.3&17.0&-28.3,106.4
CNC(=S)N1CC2CC(C1)c1cccc(=O)n1C2 (stereo unspecified),92.7,92.7,-22.2,101.3
O=c1[nH]c2ccccc2c(=O)o1,80.8,73.8,-12.7,104.2
O=C(NCc1ccc2c(c1)OCO2)c1cc2cccnc2n(Cc2ccccc2)c1=O,x,x,-10.9,103.9
Cc1cc(S(=O)(=O)NCC(C)C)ccc1OCC(=O)N1CCN(Cc2ccc3c(c2)OCO3)CC1,93.2,97.6,15.0,104.9
COc1ccc(NC(C)=O)cc1NC(=O)c1cccn(Cc2ccccc2)c1=O,112.7,81.1,x,99.3
CNc1ccc2oc(C[C@H]3O[C@@]4(CC[C@H]3C)O[C@H]([C@H](C)C(=O)c3ccc[nH]3)[C@H](C)C[C@H]4C)nc2c1C(=O)O,x,x,-15.1,107.7
CCN1C[C@@]2(COC)C3[C@@H](OC)C4[C@@H]1C3([C@@H]1C[C@@]3(O)[C@H](OC(=O)c5ccccc5)[C@@H]1[C@]4(OC(C)=O)[C@@H](O)[C@@H]3OC)[C@H](OC)C[C@H]2O,x,x,-28.9,102.8
CN(N)P(=S)(c1ccccc1)N(C)N,91.2,89.3,3.6,x
CCOCCCNC1CC(C)CC(C)(C)C1 (stereo unspecified),101.7,90.8,-12.0,x
CCc1cnc(NC(=O)CN2CC3CC(C2)c2cccc(=O)n2C3)s1 (stereo unspecified),118.0,95.7,-2.1,106.6
CCN1CCC(NC2CCC(O)CC2)CC1 (stereo unspecified),91.5,104.1,-7.6,103.0
Cc1ccc(-n2cccc2C=C2C(=O)NC(=O)NC2=O)cc1Cl,103.8,91.5,10.9,111.4
CCC1CCCCN1CC(=O)c1ccccc1Cl (stereo unspecified),109.2,94.0,-30.1,x
O=C1NC(=O)C(=Cc2ccc(OCc3ccc(C(=O)O)cc3)c(Br)c2)C(=O)N1,x,x,62.6*,100.7
CC1CN(C)C(C)(C)CC1(O)c1ccccc1 (stereo unspecified),95.8,105.3,3.4,91.0
Cc1ccc(C(C)(C)C)c(OCC(=O)Nc2ccc(Cl)cc2C(=O)c2ccccc2)c1,94.9,85.6,-14.6,103.8
CNC1C2CN3CCC(O2)C13 (stereo unspecified),83.3,85.0,4.4,x
CN1CCN(Cc2cc(C(C)(C)C)c(O)c(C(C)(C)C)c2)CC1,105.4,93.5,x,97.8
Cc1ccc(-c2nc(OC(=O)N(C)C)cc(C(F)(F)F)n2)cc1Cl,135.5,75.9,-5.7,99.7
N#CC(CCN1CCNCC1)(c1ccccc1)c1ccccc1,85.6,83.0,-8.2,x
Cc1nn(CCC#N)cc1C=C(C#N)C#N,63.5,76.0,-13.3,x

# Grouped by structure, those above with a carbonyl joined to an NH by a bond outside any ring
SMILES,Sa growth 42C,Sa growth 42C second temp,HCMV UL50-53 inh,GIV-Gai inh
N#Cc1cccc(NC(=O)CSc2nc3c(cc2C#N)N2CCC3CC2)c1,102.2,97.3,-38.2,102.6
CC(=O)Nc1cc([As](=O)(O)O)ccc1O,95.1,86.1,-37.4,x
CC(=O)NC(C(=O)NCc1ccc(F)cc1)C(C)C (stereo unspecified),98.2,93.1,7.0,x
O=C(CN1CC=C(c2ccccc2)CC1)NCc1cccs1,95.2,82.3,-17.7,x
CC(C)C(C(=O)NC1CN2CCC1CC2)c1ccc(Cl)cc1 (stereo unspecified),103.3,98.4,-1.9,x
O=C(c1ccccc1)c1cc(Br)ccc1NC(=O)c1cc2ccccc2oc1=O,x,x,-12.0,103.4
CCOCC(=O)NC1CCSC1=O (stereo unspecified),118.5,100.5,x,93.9
COc1ccc(C2c3cccn3-c3ccccc3CN2C(=O)Nc2cc(C)ccc2C)cc1 (stereo unspecified),x,x,-10.5,101.6
CN1C[C@H](C(=O)N[C@]2(C)C[C@@]3(O)C4CCCN4C(=O)[C@H](Cc4ccccc4)N3C2=O)C=C2c3cccc4[nH]cc(c34)C[C@H]21 (stereo partly specified),105.6,92.6,-14.3,x
N#CCCn1cc(C(=O)Nc2ccccc2)c(-c2ccc3c(c2)OCCO3)n1,104.5,73.2,x,100.8
O=C(NCc1ccc2c(c1)OCO2)c1cc2cccnc2n(Cc2ccccc2)c1=O,x,x,-10.9,103.9
COc1ccc(NC(C)=O)cc1NC(=O)c1cccn(Cc2ccccc2)c1=O,112.7,81.1,x,99.3
CCc1cnc(NC(=O)CN2CC3CC(C2)c2cccc(=O)n2C3)s1 (stereo unspecified),118.0,95.7,-2.1,106.6
Cc1ccc(C(C)(C)C)c(OCC(=O)Nc2ccc(Cl)cc2C(=O)c2ccccc2)c1,94.9,85.6,-14.6,103.8

# These rows are one share of the data, so the mix of outcomes need not match the whole.
